High-throughput results: PubChem BioAssay, Broad Institute
rRNA inh HTS – selective bacterial rRNA inhibition in E. coli. 350,000 compounds, 1.6% hits. AID 720706. GFP signal change (wild-type ribosome), % (no concentration beside the values). E. coli WT GFP vs humanized-ribosome RFP mutants, fluorescence, 24 h; active compounds read low; DMSO median 0, no signal -100;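 active = significant combined selectivity score with lowered wild-type GFP, culture density cut under 30%, mutant RFP and density less affected; inactive = any of these conditions unmet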; also: one replicate is shown; some compounds called inactive have numbers as strong as hits
rRNA inh HTS OD600 – further read-out of rRNA inh HTS, marked with its call; OD600 change, %; measured here: OD600 growth;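 optical density of the mix in the first replicate; 0 = DMSO median and -100 = no signal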
rRNA inh HTS RFP – recorded beside rRNA inh HTS, whose call it bears; RFP signal change, %; measured here: RFP humanized mutant strains;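 first replicate; 0 = DMSO median and -100 = no signal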
Active calls of the source: *. Some of the compounds tested (hit frequency here may not be typical).

SMILES | rRNA inh HTS | rRNA inh HTS OD600 | rRNA inh HTS RFP
COc1ccc(NC(=O)N[C@H]2CC[C@H](CCNC(=O)Nc3cc(F)ccc3F)O[C@@H]2CO)cc1 | -13 | -10 | 3.8
Cc1noc(C)c1NC(=O)Nc1ccc2c(c1)C(=O)N([C@@H](C)CO)C[C@H](C)[C@@H](CN(C)CC1CCCCC1)O2 | 4 | 8 | -3.2
COc1ccc(NC(=O)N(C)C[C@@H]2Oc3ccc(NS(=O)(=O)c4ccc(C)cc4)cc3CC(=O)N([C@@H](C)CO)C[C@@H]2C)cc1 | 2 | -3 | 1.2
COc1ccc(NC(=O)N(C)C[C@H]2Oc3ccc(NS(=O)(=O)c4ccc(C)cc4)cc3C(=O)N([C@H](C)CO)C[C@H]2C)cc1 | 0 | 3 | -1.0
CC(C)[C@H]1CCc2cnnn2COC[C@H](c2ccccc2)NC1=O | 6 | 18 | -0.8
CNC[C@@H]1Oc2ccc(N(C)C)cc2CC(=O)N(C)C[C@H]1C | -2 | -4 | 4.1
C/C=C/c1ccc([C@@H]2[C@@H](CO)N(C(C)=O)[C@H]2CN(CC(C)C)C(C)=O)cc1 | 0 | 2 | -1.7
CO[C@H]1CN(C)C(=O)c2cc(NC(=O)C3CC3)ccc2OC[C@H](C)N(C(=O)Cc2ccccn2)C[C@H]1C | 3 | 2 | -0.7
CC(C)(C)[S@](=O)N1Cc2cc(C(=O)N[C@@H]3CCN(Cc4ccccc4)C3)nc(-c3cccc(-c4cncnc4)c3)c2[C@@H]1CCO | -2 | 6 | 5.1
CCC(=O)N1C[C@H](C)[C@@H](OC)CN(C)C(=O)c2ccc(NC(=O)C3CCOCC3)cc2OC[C@H]1C | -1 | 1 | 0.7

A different layout for some results above.
| rRNA inh HTS | rRNA inh HTS OD600 | rRNA inh HTS RFP | smiles |
| --- | --- | --- | --- |
| 6 | 18 | -0.8 | CC(C)[C@H]1CCc2cnnn2COC[C@H](c2ccccc2)NC1=O |
| 0 | 3 | -1.0 | COc1ccc(NC(=O)N(C)C[C@H]2Oc3ccc(NS(=O)(=O)c4ccc(C)cc4)cc3C(=O)N([C@H](C)CO)C[C@H]2C)cc1 |
| -1 | 1 | 0.7 | CCC(=O)N1C[C@H](C)[C@@H](OC)CN(C)C(=O)c2ccc(NC(=O)C3CCOCC3)cc2OC[C@H]1C |

(next part)
SMILES | rRNA inh HTS | rRNA inh HTS OD600 | rRNA inh HTS RFP
CC(C)C#Cc1ccc2c(c1)O[C@@H](CN(C)C(=O)C1CCCCC1)[C@H](C)CN([C@H](C)CO)S2(=O)=O | 2 | -4 | 3.0
C[C@H]1CN(C)C(=O)c2cc(NS(C)(=O)=O)ccc2O[C@@H]1CN(C)S(C)(=O)=O | -1 | 5 | -0.9
COc1ccc2c3c([nH]c2c1)[C@H](CO)N(C(=O)Nc1ccccc1F)CC31CCN(C(=O)c2ccccc2F)CC1 | 1 | 1 | 1.4
C[C@H](CO)N1C[C@H](C)[C@@H](CN(C)C(=O)C2CCCCC2)Oc2ncc(-c3cccnc3)cc2C1=O | 2 | 5 | -1.6
C[C@@H]1CN([C@H](C)CO)C(=O)c2cc(Br)cnc2O[C@@H]1CN(C)C(=O)C1CCC1 | 5 | 1 | -1.0
O=C1NCCOCn2nncc2CC[C@@H]1Cc1ccccc1 | 0 | 8 | -2.1
CCC(=O)Nc1ccc2c(c1)OC[C@@H](C)N(CC1CCCCC1)C[C@@H](C)[C@H](OC)CN(C)C2=O | -1 | -10 | 3.0
CCCNC(=O)Nc1ccc2c(c1)C(=O)N(C)C[C@H](OC)[C@H](C)CN(Cc1ccncc1)[C@@H](C)CO2 | 0 | 1 | 1.2
CC(=O)N(C)C[C@@H]1Oc2ccc(NS(C)(=O)=O)cc2CC(=O)N(C)C[C@H]1C | -1 | 0 | -1.7
C[C@@H]1CN([C@H](C)CO)C(=O)c2cccc(NC(=O)c3cnccn3)c2O[C@@H]1CN(C)S(=O)(=O)c1ccccc1 | -2 | -8 | 0.5
C[C@H](CO)N1C[C@H](C)[C@@H](CN(C)Cc2ccccc2)Oc2ccc(NC(=O)CCCN(C)C)cc2CC1=O | 3 | 9 | 1.0
C[C@H](CO)N1C[C@H](C)[C@@H](CN(C)C(=O)C2CCCCC2)Oc2ncc(C#CC3CCCCC3)cc2C1=O | 3 | 7 | -1.2
C[C@H]1CN([C@@H](C)CO)C(=O)c2cccc(NC(=O)C3CCOCC3)c2O[C@@H]1CN(C)C(=O)Nc1ccc2c(c1)OCO2 | -2 | -3 | -2.3
CO[C@H]1CN(C)C(=O)c2cc(NC(=O)NC(C)C)ccc2OC[C@@H](C)N(Cc2cncnc2)C[C@H]1C | 1 | -5 | -1.9
CCCC#Cc1cnc2c(c1)C(=O)N([C@@H](C)CO)C[C@H](C)[C@H](CN(C)S(=O)(=O)c1cn(C)cn1)O2 | 5 | 0 | -0.4
CC(C)NC(=O)Nc1ccc2c(c1)C(=O)N([C@@H](C)CO)C[C@H](C)[C@@H](CN(C)Cc1ccccc1)OCCCC[C@@H](C)O2 | 1 | 1 | -4.5
C[C@H]1CN([C@@H](C)CO)S(=O)(=O)c2ccc(-c3ccc(F)cc3)cc2O[C@@H]1CN(C)C(=O)C1CC1 | -7 | -8 | -0.5
C[C@H](CO)N1C[C@H](C)[C@@H](CN(C)Cc2ccc(C(=O)O)cc2)Oc2c(NC(=O)Nc3ccc(C(F)(F)F)cc3)cccc2C1=O | -5 | -8 | -2.7
C[C@@H]1CN([C@H](C)CO)C(=O)c2cc(C#CC3CC3)cnc2O[C@@H]1CN(C)C(=O)C1CCCCC1 | 0 | -2 | -1.9
CCCNC(=O)Nc1ccc2c(c1)C(=O)N(C)C[C@@H](OC)[C@H](C)CN(Cc1ccccc1)[C@H](C)CO2 | -6 | -11 | 1.0

The list goes on; the last 3 above are carried over.
SMILES | rRNA inh HTS | rRNA inh HTS OD600 | rRNA inh HTS RFP
C[C@H](CO)N1C[C@H](C)[C@@H](CN(C)Cc2ccc(C(=O)O)cc2)Oc2c(NC(=O)Nc3ccc(C(F)(F)F)cc3)cccc2C1=O | -5 | -8 | -2.7
C[C@@H]1CN([C@H](C)CO)C(=O)c2cc(C#CC3CC3)cnc2O[C@@H]1CN(C)C(=O)C1CCCCC1 | 0 | -2 | -1.9
CCCNC(=O)Nc1ccc2c(c1)C(=O)N(C)C[C@@H](OC)[C@H](C)CN(Cc1ccccc1)[C@H](C)CO2 | -6 | -11 | 1.0
COc1ccc2c3c([nH]c2c1)[C@@H](CO)N(Cc1ccncc1)CC31CN(C(=O)c2cccnc2)C1 | 0 | 5 | -0.8
C[C@@H]1CN([C@@H](C)CO)C(=O)CCCn2cc(nn2)CO[C@@H]1CN(C)C(=O)c1ccc(N2CCN(C)CC2)cc1 | 1 | -1 | -0.1
C[C@H]1CN([C@@H](C)CO)C(=O)Cc2cc(NC(=O)Nc3ccc(F)cc3)ccc2O[C@@H]1CN(C)S(=O)(=O)c1cn(C)cn1 | -2 | -1 | -0.6
CN(C)C(=O)c1ccc(-c2ccc3c(c2)[C@@H]2[C@@H](CCN2C(=O)c2ccc4c(c2)OCO4)[C@@H](CO)N3)cc1 | -5 | 2 | 0.9
C[C@H](CO)N1C[C@H](C)[C@H](CN(C)S(=O)(=O)c2cccs2)Oc2ccc(NS(=O)(=O)c3cccs3)cc2CC1=O | 0 | -1 | 1.1
CO[C@@H]1CN(C)C(=O)c2cc(NC(=O)CC(F)(F)F)ccc2OC[C@H](C)N(C(=O)c2ccccc2F)C[C@H]1C | 3 | 4 | 0.6
CCCNC(=O)Nc1ccc2c(c1)C(=O)N(C)C[C@H](OC)[C@H](C)CN(CC1CCCC1)[C@H](C)CO2 | 2 | 7 | -2.7
CC(C)C#Cc1ccc([C@H]2[C@H](CO)N3CCCCN(S(=O)(=O)Cc4ccccc4)C[C@@H]23)cc1 | -58 | -78 | -14
O=C(c1ccccc1F)N1CC[C@@H]2[C@H]1c1cc(C#Cc3ccccc3)ccc1N[C@@H]2CO | -5 | 8 | 0.8
CN(C)CCCNC(=O)C[C@H]1CC[C@@H]2[C@@H](COc3ccc(NC(=O)NC4CCCC4)cc3C(=O)N2C)O1 | 2 | 2 | 1.1
COc1ccc(CN(C)C[C@@H]2Oc3ccc(NS(C)(=O)=O)cc3CC(=O)N([C@@H](C)CO)C[C@@H]2C)cc1 | 1 | -7 | -1.1
C[C@@H]1CN([C@@H](C)CO)C(=O)c2cc(C#CC3CC3)cnc2O[C@H]1CN(C)C(=O)C1CCCCC1 | 0 | -4 | 1.4
C/C=C/c1ccc2c(c1)O[C@H](CN(C)CC1CC1)[C@H](C)CN([C@H](C)CO)S2(=O)=O | 3 | 7 | -3.4
CNC[C@H]1Oc2c(NS(C)(=O)=O)cccc2C(=O)N(C)C[C@H]1C | 0 | 8 | -0.8
C[C@H](CO)N1C[C@H](C)[C@@H](CN(C)C(=O)c2ccncc2)Oc2ncc(-c3ccc(F)cc3)cc2C1=O | 5 | -4 | 1.7
CO[C@@H]1CN(C)C(=O)c2cc(NC(=O)NC(C)C)ccc2OC[C@H](C)N(CCC(F)(F)F)C[C@@H]1C | 0 | -1 | -1.5
CCC(=O)Nc1ccc2c(c1)C(=O)N(C)C[C@H](OC)[C@H](C)CN(Cc1cncnc1)[C@H](C)CO2 | 4 | 3 | 0.5
CCC(=O)Nc1ccc2c(c1)C(=O)N(C)C[C@H](OC)[C@@H](C)CN(C(=O)CN1CCOCC1)[C@H](C)CO2 | 7 | 8 | -0.6
COc1ccc2c3c([nH]c2c1)[C@@H](CO)N(Cc1ccccc1F)CC31CN(C(=O)C2CCOCC2)C1 | 1 | 11 | 0.9
Cc1ccc(-c2ccc([C@H]3[C@H](CO)N4CCCCN(C(=O)Nc5cccc(F)c5)C[C@@H]34)cc2)cc1 | -54 | -78 | -6.5
CC(C)[C@@H]1C/C=C\C[C@@H](c2ccc(F)cc2)NC(=O)[C@H](C)CC(=O)N1 | 1 | 3 | -0.5
C[C@H]1CN([C@@H](C)CO)C(=O)Cc2cc(NS(=O)(=O)c3ccc(F)cc3)ccc2O[C@H]1CN(C)Cc1ccc(-c2ccccc2)cc1 | 6 | -2 | -0.7
COCC#Cc1ccc([C@@H]2[C@@H](CO)N3CCCCN(S(=O)(=O)c4cccc(OC)c4)C[C@@H]23)cc1 | -1 | -15 | 3.7
CCc1cnc(N2[C@H](CO)[C@H](c3ccccc3-c3ccccc3C)[C@@H]2C#N)s1 | -2 | -1 | 1.3
O=C(NC[C@H]1N[C@H](CO)[C@@H]1c1ccc(-c2cncnc2)cc1)C1CC1 | 2 | -1 | 0.1
C[C@@H]1CN([C@@H](C)CO)C(=O)CCCn2cc(nn2)CO[C@@H]1CN(C)Cc1ccccc1C(F)(F)F | -1 | 4 | 0.8
COCC(=O)Nc1ccc2c(c1)OC[C@H](C)N(C(=O)c1ccccn1)C[C@@H](C)[C@@H](OC)CN(C)C2=O | 0 | 6 | -0.3
O=C(c1ccncc1)N1CC[C@H]2[C@H](CO)Nc3ccc(Br)cc3[C@H]21 | 3 | 12 | -6.6
CNC[C@@H]1OCc2cn(nn2)CCCC(=O)N([C@H](C)CO)C[C@@H]1C | 1 | 2 | 0.6
C[C@H]1CN([C@@H](C)CO)C(=O)c2cc(NC(=O)CCCCCC(=O)Nc3ccccc3N)ccc2O[C@H]1CN(C)C(=O)NC1CCCCC1 | 5 | 1 | -0.8

An excerpt from above in order of length of the SMILES, falling.
SMILES | rRNA inh HTS | rRNA inh HTS OD600 | rRNA inh HTS RFP
C[C@H]1CN([C@@H](C)CO)C(=O)Cc2cc(NS(=O)(=O)c3ccc(F)cc3)ccc2O[C@H]1CN(C)Cc1ccc(-c2ccccc2)cc1 | 6 | -2 | -0.7
C[C@H]1CN([C@@H](C)CO)C(=O)c2cc(NC(=O)CCCCCC(=O)Nc3ccccc3N)ccc2O[C@H]1CN(C)C(=O)NC1CCCCC1 | 5 | 1 | -0.8
CNC[C@@H]1OCc2cn(nn2)CCCC(=O)N([C@H](C)CO)C[C@@H]1C | 1 | 2 | 0.6

Continuation:
SMILES | rRNA inh HTS | rRNA inh HTS OD600 | rRNA inh HTS RFP
CCC(=O)N1[C@H](CO)[C@@H](c2ccccc2)C12CN(C(=O)CN1CCOCC1)C2 | 2 | 9 | -2.1
COc1cccc(NC(=O)N(C)C[C@H]2OCc3ccccc3-c3ccccc3C(=O)N([C@@H](C)CO)C[C@@H]2C)c1 | -4 | -8 | 0.6
CCCC(=O)Nc1ccc2c(c1)C(=O)N(C)C[C@H](OC)[C@H](C)CN(CC1CCOCC1)[C@@H](C)CO2 | 6 | 5 | -1.4
CC(=O)N(C)C[C@H]1Oc2c(cccc2N(C)C)C(=O)N(C)C[C@H]1C | 4 | 16 | -3.6
C/C=C/c1cnc2c(c1)C(=O)N([C@@H](C)CO)C[C@@H](C)[C@H](CN(C)C(=O)C1CCC1)O2 | -3 | 6 | 0.2
O=C1N[C@@H](Cc2ccccc2)COCc2cn(nn2)CC[C@H]1Cc1ccc(Cl)cc1 | 1 | 4 | -3.5
C[C@@H]1CN([C@H](C)CO)C(=O)c2cc(NC(=O)Nc3ccc(C(F)(F)F)cc3)ccc2O[C@@H]1CN(C)S(=O)(=O)c1cccs1 | 2 | 0 | -4.7
C[C@H]1CN([C@@H](C)CO)S(=O)(=O)c2ccc(C3=CCCCC3)cc2O[C@@H]1CN(C)C | -2 | 3 | 0.8
CC(C)NC(=O)N1[C@H](CO)[C@@H](c2ccccc2)[C@@H]1CN(C)C(=O)c1ccncc1 | 0 | -1 | -1.1
CC(C)NC(=O)N(C)C[C@H]1Oc2ccc(N(C)C)cc2C(=O)N(C)C[C@@H]1C | 1 | 3 | 0.2
CCC(=O)N1[C@H](CO)[C@H](c2ccc(C3=CCCC3)cc2)[C@@H]1CN(C)C(C)=O | 0 | 8 | -2.6
COc1ccc(NC(=O)N(C)C[C@@H]2Oc3ccc(NS(=O)(=O)c4ccc(C)cc4)cc3CC(=O)N([C@@H](C)CO)C[C@H]2C)cc1 | 0 | -4 | 1.4
COc1ccc(S(=O)(=O)Nc2cccc3c2O[C@@H](CN(C)Cc2ccc(Cl)c(Cl)c2)[C@@H](C)CN([C@H](C)CO)C3=O)cc1 | -3 | -7 | 3.5
